Compound activity (PubChem BioAssay)
NOMO-1 viab: NOMO-1 AML cell viability reduction, primary screen, STK33 inhibitor project, CellTiter-Glo luminescence; NOMO-1 AML viability, 72 h; inhibition, % (no concentration beside the values); 7.5% of 37,000 active;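 active = most replicates above 80%; inconclusive = exactly half above 80%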;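 note: wells of about 30 µL received 25 nL stock; 0% = median of vehicle wells and 100% = reference inhibitor level; the first replicate is given; inactives centre near 10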
* marks the source's active call; other numbers are inactive results; ? = inconclusive.

SMILES | NOMO-1 viab
Cc1ccc(S(=O)(=O)N(C)C[C@H]2Oc3c(NC(=O)Nc4cccc5ccccc45)cccc3C(=O)N([C@H](C)CO)C[C@@H]2C)cc1 | 31
N#CC1=C(N)C(C#N)(C#N)C2(C(=O)N(Cc3ccccc3)c3ccccc32)C2CCCC=C12 (configuration not stated) | 22
Cc1ccc(S(=O)(=O)NC(Cc2c[nH]c3ccccc23)C(=O)O)cc1 (configuration not stated) | -9
C[C@@H]1CN([C@@H](C)CO)C(=O)Cc2cc(NC(=O)C3CCCCC3)ccc2O[C@@H]1CN(C)S(=O)(=O)c1cn(C)cn1 | 13
C[C@H]1CN([C@@H](C)CO)C(=O)Cc2cc(NC(=O)CCC(F)(F)F)ccc2O[C@@H]1CN(C)Cc1ccc(C(=O)O)cc1 | -4
Cc1ccc(S(=O)(=O)Nc2ccc3c(c2)C(=O)N([C@H](C)CO)C[C@H](C)[C@H](CN(C)C(=O)c2ccccc2)OCCCC[C@@H](C)O3)cc1 | 41
COc1ccc(Nc2ncnc3c2nnn3Cc2ccccc2Cl)c(OC)c1 | 30
C[C@H](CO)N1C[C@H](C)[C@H](CN(C)S(C)(=O)=O)Oc2ccc(NC(=O)C3CC3)cc2C1=O | -3
CC(C)N1CC=C2C(C1)C(c1ccccc1)C(C#N)=C(N)C2(C#N)C#N (configuration not stated) | 47
C[C@@H]1CN([C@H](C)CO)C(=O)c2cc(NC(=O)Nc3ccc(F)cc3)ccc2O[C@H]1CN(C)C(=O)Nc1ccc(C(F)(F)F)cc1 | 78
C[C@H](CO)N1C[C@H](C)[C@H](CN(C)Cc2ccc(C(=O)O)cc2)Oc2ccc(NS(C)(=O)=O)cc2C1=O | -2
Cc1ccc(S(=O)(=O)Nc2ccc3c(c2)CC(=O)N([C@@H](C)CO)C[C@@H](C)[C@@H](CN(C)S(=O)(=O)c2ccc(F)cc2)O3)cc1 | 15
CNC[C@H]1Oc2c(NS(C)(=O)=O)cccc2C(=O)N([C@H](C)CO)C[C@@H]1C | 22
COc1ccc(S(=O)(=O)N(C)C[C@H]2Oc3ccc(NC(=O)C4CCCCC4)cc3CC(=O)N([C@@H](C)CO)C[C@@H]2C)cc1 | -9
C[C@H]1CN([C@@H](C)CO)C(=O)Cc2cc(NS(=O)(=O)c3cn(C)cn3)ccc2O[C@H]1CN(C)C(=O)NC1CCCCC1 | -10
CN(CCc1ccc(Cl)c(Cl)c1)CC(O)COc1ccc(NS(C)(=O)=O)cc1 (configuration not stated) | 1
O=C(NCCCN1CCCC1=O)c1cc(-c2cccnc2)nc2ccc(Cl)cc12 | -7
CCc1ccccc1OCC(=O)Nc1ccc(C)cc1[N+](=O)[O-] | -5
COC(=O)Cc1csc(Nc2c(C)n(C)n(-c3ccccc3)c2=O)n1 | -4
C[C@@H]1CN([C@@H](C)CO)C(=O)c2cc(NS(=O)(=O)c3ccccc3)ccc2O[C@H]1CN(C)S(=O)(=O)c1cccs1 | -14
C[C@@H]1CN([C@@H](C)CO)C(=O)c2cc(NC(=O)CCC(F)(F)F)ccc2O[C@H]1CN(C)S(=O)(=O)c1cccs1 | -6
CC(=O)c1cccc(NC(=O)CN2C(=O)c3ccccc3S2(=O)=O)c1 | -25
C[C@@H]1CN([C@@H](C)CO)C(=O)c2cccc(NC(=O)C3CC3)c2O[C@H]1CN(C)S(C)(=O)=O | -2
CC(C)NC(=O)N(C)C[C@@H]1Oc2c(NC(=O)Nc3ccc(C(F)(F)F)cc3)cccc2C(=O)N([C@@H](C)CO)C[C@@H]1C | 67
C[C@@H]1CN([C@H](C)CO)C(=O)c2cccc(NC(=O)Nc3ccc(F)cc3)c2O[C@@H]1CN(C)C | -8
O=C(CSc1nnc(-c2ccc(Cl)cc2)n1-c1ccc(F)cc1)Nc1ccccc1Cl | 30
C[C@@H]1CN([C@H](C)CO)C(=O)c2cccc(NC(=O)c3ccc(-c4nccs4)cc3)c2O[C@H]1CN(C)Cc1ccc(-c2ccccc2)cc1 | 24
CSc1n[nH]c(NS(=O)(=O)c2ccc(Cl)cc2)c1-c1ccccn1 | 7
Cc1noc(C)c1NC(=O)Nc1ccc2c(c1)C(=O)N([C@H](C)CO)C[C@H](C)[C@H](CN(C)S(=O)(=O)c1ccc(Cl)cc1)O2 | 19
CC(NC(=O)CC(c1ccccc1)c1ccccc1)c1ccccc1 (configuration not stated) | 28
COc1ccc(CN(C)C[C@@H]2Oc3ccc(NC(=O)Nc4ccccc4)cc3CC(=O)N([C@H](C)CO)C[C@H]2C)cc1 | -5
COc1ccc(CCNC(=O)c2c(-c3ccccc3)noc2C)cc1OC | 21
Cc1cc(NC(=O)C(C)n2cc([N+](=O)[O-])cn2)ccc1Br (configuration not stated) | 26
CC(C)=CCc1cc2c(c(CC=C(C)C)c1O)O[C@H](c1ccc(O)cc1)[C@@H](O)C2=O | 37
Cc1ccc(S(=O)(=O)N(c2cc(C)nn2C)S(=O)(=O)c2ccc(C)cc2)cc1 | 16
Cc1ccc(S(=O)(=O)N(C)C[C@H]2Oc3c(NC(=O)Nc4ccc5c(c4)OCO5)cccc3C(=O)N([C@@H](C)CO)C[C@H]2C)cc1 | 40
C[C@H](CO)N1C[C@H](C)[C@H](CN(C)S(=O)(=O)c2ccccc2)Oc2ccc(NS(=O)(=O)c3ccc(Cl)cc3)cc2CC1=O | 18
O=C(Nc1ccccc1C(=O)N1CCOCC1)c1ccc(CN2CCOCC2)cc1 | -31
CS(=O)(=O)N(CC(=O)Nc1cccc(F)c1)Cc1ccccc1 | 28
C[C@@H]1CN([C@@H](C)CO)C(=O)c2cccc(NS(=O)(=O)c3ccc(F)cc3)c2O[C@H]1CN(C)S(=O)(=O)c1cn(C)cn1 | -10
CCC1(C)Cc2c(sc3nc(SCC(=O)Nc4ccc(Cl)cc4)nc(N)c23)CO1 (configuration not stated) | 30
C[C@H](CO)N1C[C@H](C)[C@H](CN(C)Cc2ccc(C(F)(F)F)cc2)Oc2ccc(NC(=O)NC3CCCCC3)cc2CC1=O | 38
C[C@H]1CN([C@@H](C)CO)C(=O)c2cc(NS(=O)(=O)c3ccc(F)cc3)ccc2O[C@H]1CN(C)S(=O)(=O)c1cn(C)cn1 | 20
COc1ccc2oc(-c3cccc(NC(=O)COc4ccc(Cl)cc4)c3)nc2c1 | 18
C[C@H]1CN([C@@H](C)CO)C(=O)c2cc(NC(=O)C3CC3)ccc2O[C@@H]1CN(C)Cc1ccc2c(c1)OCO2 | 3
Cc1ccc(S(=O)(=O)N(C)C[C@@H]2Oc3ccc(NS(=O)(=O)c4ccc(F)cc4)cc3C(=O)N([C@@H](C)CO)C[C@H]2C)cc1 | 3
C[C@@H]1CN([C@H](C)CO)C(=O)c2cccc(NC(=O)c3ccncc3)c2O[C@@H]1CN(C)S(C)(=O)=O | 22
C[C@H](CO)N1C[C@H](C)[C@H](CN(C)S(=O)(=O)c2ccc(F)cc2)Oc2c(NC(=O)c3cnccn3)cccc2C1=O | -1
Cc1nc(SCC(=O)Nc2oc(-c3ccccc3)c(-c3ccccc3)c2C#N)nc2c1CCCC2 | -21
Cc1cc(C(=O)Nc2cccc3c2O[C@@H](CN(C)Cc2ccccc2)[C@H](C)CN([C@@H](C)CO)C3=O)n(C)n1 | 9
COc1ccc(OC)c(NC(=O)Cn2cnc3sc(C)c(-c4ccccc4)c3c2=O)c1 | 13
C[C@H](CO)N1C[C@H](C)[C@H](CN(C)Cc2ccc(-c3ccccc3)cc2)Oc2ccc(NC(=O)Cn3cnnn3)cc2C1=O | 1
COc1ccc(CN(C)C[C@@H]2Oc3c(NC(=O)Nc4ccc(C(F)(F)F)cc4)cccc3C(=O)N([C@H](C)CO)C[C@H]2C)cc1 | 105*
C[C@H]1CN([C@@H](C)CO)C(=O)Cc2cc(NC(=O)C3CCCCC3)ccc2O[C@@H]1CN(C)CC1CCCCC1 | 51
CCn1c(SCC(=O)Nc2ccc(Cl)cc2)nnc1-c1ccco1 | 5
Cc1noc(C)c1NC(=O)N(C)C[C@H]1Oc2c(NC(=O)c3cnccn3)cccc2C(=O)N([C@H](C)CO)C[C@@H]1C | 23
NC(=O)Cc1ccc(O)c(Cl)c1 | -8
CN(CC(=O)Nc1ccccc1[N+](=O)[O-])S(=O)(=O)c1ccc(Cl)cc1 | 15
O=C(O)CCCc1cc2cc(Br)ccc2o1 | 40
CCOC(=O)c1c(NC(=O)CSc2nncn2C)sc(C)c1C | 38

5 entries drawn at random from the list so far:
SMILES | NOMO-1 viab
Cc1noc(C)c1NC(=O)N(C)C[C@H]1Oc2c(NC(=O)c3cnccn3)cccc2C(=O)N([C@H](C)CO)C[C@@H]1C | 23
Cc1cc(C(=O)Nc2cccc3c2O[C@@H](CN(C)Cc2ccccc2)[C@H](C)CN([C@@H](C)CO)C3=O)n(C)n1 | 9
C[C@H](CO)N1C[C@H](C)[C@H](CN(C)Cc2ccc(C(F)(F)F)cc2)Oc2ccc(NC(=O)NC3CCCCC3)cc2CC1=O | 38
C[C@H]1CN([C@@H](C)CO)C(=O)c2cc(NC(=O)C3CC3)ccc2O[C@@H]1CN(C)Cc1ccc2c(c1)OCO2 | 3
CN(CC(=O)Nc1ccccc1[N+](=O)[O-])S(=O)(=O)c1ccc(Cl)cc1 | 15

(cont.)
SMILES | NOMO-1 viab
C[C@@H]1CN([C@@H](C)CO)C(=O)c2cccc(NS(=O)(=O)c3ccccc3)c2O[C@H]1CN(C)Cc1ccncc1 | 21
O=C1c2ccccc2C(=O)N1c1nccs1 | 34
COc1ccc(S(=O)(=O)Nc2ccc3c(c2)CC(=O)N([C@@H](C)CO)C[C@H](C)[C@@H](CN(C)Cc2ccc4c(c2)OCO4)O3)cc1 | 28
C[C@@H]1CN([C@@H](C)CO)C(=O)c2cc(NC(=O)C3CCCCC3)ccc2O[C@H]1CN(C)S(C)(=O)=O | 9
CC(C)NC(=O)N(C)C[C@H]1Oc2c(NC(=O)Nc3cccc4ccccc34)cccc2C(=O)N([C@H](C)CO)C[C@@H]1C | 22
C[C@H]1CN([C@@H](C)CO)C(=O)Cc2cc(NC(=O)Cn3cnnn3)ccc2O[C@H]1CN(C)S(C)(=O)=O | -11
Cc1noc(C)c1NC(=O)N(C)C[C@@H]1Oc2c(NC(=O)CCCCCC(=O)Nc3ccccc3N)cccc2C(=O)N([C@@H](C)CO)C[C@H]1C | 8
CN(CC(=O)Nc1ccc(Cl)c(C(F)(F)F)c1)S(=O)(=O)c1ccc(F)cc1 | 5
C[C@@H]1CCCCO[C@@H](CN(C)Cc2ccc(C(=O)Nc3ccccc3N)cc2)[C@@H](C)CN([C@H](C)CO)C(=O)c2cc(NC(=O)c3ccccc3)ccc2O1 | 141*
O=C(CSc1nnc(-c2ccncc2)n1-c1ccccc1)c1ccc([N+](=O)[O-])cc1 | 2
C[C@H](CO)N1C[C@H](C)[C@H](CN(C)S(=O)(=O)c2ccc(F)cc2)Oc2ccc(NC(=O)Cn3cnnn3)cc2CC1=O | -14
C[C@@H]1CN([C@@H](C)CO)C(=O)c2cccc(NS(=O)(=O)c3cccs3)c2O[C@H]1CN(C)Cc1ccncc1 | -15
C[C@@H]1CN([C@H](C)CO)C(=O)Cc2cc(NC(=O)C3CCCCC3)ccc2O[C@H]1CN(C)C(=O)Nc1ccccc1 | -1
C[C@H](CO)N1C[C@H](C)[C@H](CN(C)Cc2ccc(Cl)c(Cl)c2)Oc2ccc(NS(=O)(=O)c3ccc(F)cc3)cc2CC1=O | 107*
C[C@@H]1CN([C@H](C)CO)C(=O)c2cccc(NC(=O)Nc3cccc4ccccc34)c2O[C@@H]1CN(C)Cc1ccc(Oc2ccccc2)cc1 | 31
C[C@@H]1CN([C@H](C)CO)C(=O)Cc2cc(NC(=O)Nc3ccc(F)cc3)ccc2O[C@H]1CN(C)S(C)(=O)=O | 20
C[C@H]1CN([C@@H](C)CO)C(=O)c2cc(NC(=O)Nc3ccc(F)cc3)ccc2O[C@H]1CN(C)S(=O)(=O)c1cccs1 | 44
C[C@H]1CN([C@@H](C)CO)C(=O)Cc2cc(NC(=O)c3ccncc3)ccc2O[C@H]1CN(C)S(=O)(=O)c1cn(C)cn1 | 4
Cn1nc(-c2ccc(NCc3cccnc3)c([N+](=O)[O-])c2)c2ccccc2c1=O | 30
COc1ccc(NC(=O)CN2CCN(S(=O)(=O)c3ccccc3)CC2)cc1 | -12
Cc1noc(C)c1NC(=O)N(C)C[C@@H]1Oc2c(NC(=O)c3nc4ccccc4s3)cccc2C(=O)N([C@H](C)CO)C[C@H]1C | -1
C[C@@H]1CN([C@@H](C)CO)C(=O)c2cccc(NC(=O)NC3CCCCC3)c2O[C@H]1CN(C)Cc1ccc(Cl)c(Cl)c1 | ?
COc1ccc(S(=O)(=O)N(C)C[C@H]2OCCCC[C@@H](C)Oc3ccc(NC(=O)c4ccccc4)cc3C(=O)N([C@H](C)CO)C[C@@H]2C)cc1 | -1
COc1ccc(NC(=O)Nc2ccc3c(c2)CC(=O)N([C@@H](C)CO)C[C@H](C)[C@@H](CN(C)C(=O)Nc2c(C)noc2C)O3)cc1 | 21
C[C@H]1CN([C@@H](C)CO)C(=O)Cc2cc(NS(C)(=O)=O)ccc2O[C@@H]1CN(C)C(=O)NC1CCCCC1 | 3
C[C@H](CO)N1C[C@H](C)[C@@H](CN(C)Cc2ccc(C(=O)O)cc2)Oc2ccc(NC(=O)Nc3ccccc3)cc2C1=O | 15

Of the compounds above, these contain a nitro group on carbon.
SMILES | NOMO-1 viab
CCc1ccccc1OCC(=O)Nc1ccc(C)cc1[N+](=O)[O-] | -5
Cc1cc(NC(=O)C(C)n2cc([N+](=O)[O-])cn2)ccc1Br (configuration not stated) | 26
CN(CC(=O)Nc1ccccc1[N+](=O)[O-])S(=O)(=O)c1ccc(Cl)cc1 | 15
O=C(CSc1nnc(-c2ccncc2)n1-c1ccccc1)c1ccc([N+](=O)[O-])cc1 | 2
Cn1nc(-c2ccc(NCc3cccnc3)c([N+](=O)[O-])c2)c2ccccc2c1=O | 30

These rows are one share of the data; count on the stated rates, not on these rows.
